# DUX4 txn inh: DUX4-mediated transcription inhibition | 293T-iDUX4 ZSCAN4-Gaussia luciferase reporter, 24 h; stronger effect = lower value | activity change, negative = inhibition, % (no concentration beside the values) | 0.8% of 37,000 active;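 active means -10% or lower and over 25 points stronger than a control reporter; inconclusive means -10% or lower with a smaller gap; inactive means above -10%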;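 further: 0% = median of neutral control wells and -100% = median of positive control wells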
# DUX4 txn inh difference: further read-out of DUX4 txn inh, marked with its call; Gaussia minus Italica difference, %; measured here: selective DUX4 reporter inhibition;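 worked out from the two reporters; negative = selective loss of the DUX4 reporter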
# DUX4 txn inh control: also measured in DUX4 txn inh; calls as there; activity change, negative = inhibition, %; measured here: Italica tet-on control reporter;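 0 = neutral control and -100 = positive control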
# * marks the source's active call; other numbers are inactive results; u = inconclusive; x = no result given; ! = a repeat was not active. A portion of the library; rates above refer to the full screens.
DUX4 txn inh difference	DUX4 txn inh	DUX4 txn inh control	Structure
23	u	-7.6	O=S(=O)(c1ccc(-c2ccccc2)cc1)N1C[C@@H]2N[C@H](C1)C2c1ccc(-c2cncnc2)cc1 (some centres not stated)
-3	5	7.6	Cc1noc(C)c1NC(=O)N1C[C@@H](O)COC[C@@H]2O[C@@H](CC(=O)N[C@@H]3CCN(Cc4ccccc4)C3)CC[C@H]21
x	u	x	CS(=O)(=O)N1CC2(C1)[C@@H](c1ccccc1)[C@@H](CO)N2CC1CCCC1
-3	-2	0.0	Cc1noc(C)c1S(=O)(=O)Nc1ccc2c(c1)C(=O)N([C@H](C)CO)C[C@H](C)[C@@H](CN(C)C(=O)Nc1ccc3c(c1)OCO3)OCCCC[C@H](C)O2
x	u	x	COc1ccc2c3c(n(C)c2c1)[C@@H](CO)N(C(=O)Nc1ccc(F)cc1)CC31CCN(C(=O)c2ccccc2F)CC1
-9	-7	2.6	COc1cccc(-c2ccc3c(c2)[C@@H]2[C@@H](CCN2C(=O)c2cnccn2)[C@@H](CO)N3)c1
0	4	3.9	CCNC(=O)C[C@@H]1CC[C@@H]2[C@H](COC[C@@H](O)CN2C(=O)C2CCCC2)O1
-41*!	-37*!	3.9*!	Cc1ccccc1-c1ccc(C2[C@@H]3CN(Cc4ccc5c(c4)OCO5)C[C@H]2N3)cc1 (some centres not stated)
2	1	-0.8	C[C@@H]1CN([C@@H](C)CO)C(=O)Cc2cc(N(C)C)ccc2O[C@@H]1CN(C)CC1CC1
11	3	-8.1	COCC(=O)N1CCCCN2[C@H](CO)[C@H](c3ccc(C#Cc4cccnc4)cc3)[C@@H]2C1
-1	0	0.5	O=C(C[C@@H]1CC[C@H]2[C@@H](COC[C@@H](O)CN2Cc2ccncc2)O1)NCC1CC1
x	u	x	C[C@H](NC(=O)C[C@H]1CC[C@@H]2[C@H](COC[C@@H](O)CN2Cc2ccc(C(F)(F)F)cc2)O1)c1ccccc1
1	-3	-4.2	CCc1cnc(N2[C@H](CO)[C@@H](c3ccccc3)[C@@H]2C#N)s1
0	2	2.0	COC(=O)C[C@@H]1CC[C@@H]2[C@@H](COc3ccc(NS(=O)(=O)c4ccccc4Cl)cc3C(=O)N2C)O1
6	-8	-14	CCc1sc(N2[C@H](C#N)[C@@H](c3ccccc3-c3ccc(F)cc3)[C@@H]2CO)nc1C
-8	-4	3.7	CO[C@H](CN(C)Cc1cc(F)ccc1F)[C@H](C)CN([C@H](C)CO)S(=O)(=O)c1ccc(C)cc1

# A portion taken from the entries so far:
DUX4 txn inh difference	DUX4 txn inh	DUX4 txn inh control	Structure
0	4	3.9	CCNC(=O)C[C@@H]1CC[C@@H]2[C@H](COC[C@@H](O)CN2C(=O)C2CCCC2)O1
-41*!	-37*!	3.9*!	Cc1ccccc1-c1ccc(C2[C@@H]3CN(Cc4ccc5c(c4)OCO5)C[C@H]2N3)cc1 (some centres not stated)
2	1	-0.8	C[C@@H]1CN([C@@H](C)CO)C(=O)Cc2cc(N(C)C)ccc2O[C@@H]1CN(C)CC1CC1
11	3	-8.1	COCC(=O)N1CCCCN2[C@H](CO)[C@H](c3ccc(C#Cc4cccnc4)cc3)[C@@H]2C1
-1	0	0.5	O=C(C[C@@H]1CC[C@H]2[C@@H](COC[C@@H](O)CN2Cc2ccncc2)O1)NCC1CC1
x	u	x	C[C@H](NC(=O)C[C@H]1CC[C@@H]2[C@H](COC[C@@H](O)CN2Cc2ccc(C(F)(F)F)cc2)O1)c1ccccc1
1	-3	-4.2	CCc1cnc(N2[C@H](CO)[C@@H](c3ccccc3)[C@@H]2C#N)s1
0	2	2.0	COC(=O)C[C@@H]1CC[C@@H]2[C@@H](COc3ccc(NS(=O)(=O)c4ccccc4Cl)cc3C(=O)N2C)O1
6	-8	-14	CCc1sc(N2[C@H](C#N)[C@@H](c3ccccc3-c3ccc(F)cc3)[C@@H]2CO)nc1C
-8	-4	3.7	CO[C@H](CN(C)Cc1cc(F)ccc1F)[C@H](C)CN([C@H](C)CO)S(=O)(=O)c1ccc(C)cc1

# Further records
DUX4 txn inh difference	DUX4 txn inh	DUX4 txn inh control	Structure
6	6	-0.3	COc1ccc(NC(=O)N[C@H]2CC[C@H](CCNC(=O)CN3CCOCC3)O[C@@H]2CO)cc1
-13	12	25	CCCNC(=O)N1CC2(CCN(C(=O)CN(C)C)CC2)c2c(n(C)c3cc(OC)ccc23)[C@@H]1CO
x	u	x	CC(=O)N1CC2(C1)[C@@H](c1ccc(-c3ccc(F)cc3)cc1)[C@@H](CO)N2CC1CC1
-4	-2	2.5	O=C(O)C[C@H]1CC[C@@H](NC(=O)c2ccccc2F)[C@H](CO)O1
7	7	0.4	COc1ccc2c3c(n(C)c2c1)[C@@H](CO)N(C)CC31CN(CC2CC2)C1
-7	-6	1.7	COc1ccc(S(=O)(=O)Nc2ccc3c(c2)C(=O)N([C@H](C)CO)C[C@@H](C)[C@@H](CN(C)C(=O)c2ccncc2)OCCCC[C@H](C)O3)cc1
3	2	-1.0	O=S(=O)(c1ccc(F)cc1)N1CC[C@H]2[C@H](CO)Nc3ccc(-c4ccccc4F)cc3[C@H]21
-6	-9	-3.2	O=C(Cc1ccccn1)N[C@@H]1CC[C@H](CCNS(=O)(=O)c2cccc(F)c2)O[C@H]1CO
2	18	16	CCC(=O)N1CC2(CCN(C(=O)CN3CCOCC3)CC2)c2c([nH]c3cc(OC)ccc23)[C@H]1CO
4	0	-3.6	CNC[C@H]1Oc2ccc(NC(=O)Cc3cn(C)c4ccccc34)cc2C(=O)N([C@@H](C)CO)C[C@H]1C
5	1	-4.2	CCCNC(=O)C[C@@H]1CC[C@H]2[C@H](COc3ccc(NC(=O)c4cccc(C(F)(F)F)c4)cc3C(=O)N2C)O1
8	8	-0.5	O=C(C[C@H]1CC[C@@H]2[C@H](COC[C@H](O)CN2C(=O)Nc2ccccc2)O1)NCc1ccccc1F
3	7	4.2	C[C@H](CO)N1C[C@H](C)[C@H](CN(C)CC2CCCCC2)Oc2ccc(NC(=O)c3ccncc3)cc2C1=O
9	19	9.7	COCC#Cc1ccc([C@@H]2[C@@H](CO)N3C(=O)CN(C(=O)c4ccncc4)C[C@H]23)cc1
x	u	x	O=C(C[C@H]1CC[C@@H](NS(=O)(=O)c2ccc(F)cc2)[C@@H](CO)O1)N1CCN(c2ccccc2)CC1
6	-8	-15	COc1ccc2c3c(n(C)c2c1)[C@H](CO)NCC31CCN(Cc2ccc(F)cc2)CC1
x	u	x	CC(C)NC(=O)N1CCCCN2[C@H](CO)[C@H](c3ccc(C#Cc4ccccc4F)cc3)[C@@H]2C1
0	0	0.6	CC(C)NC(=O)Nc1ccc2c(c1)C(=O)N([C@H](C)CO)C[C@@H](C)[C@H](CN(C)C(=O)Nc1ccc(F)cc1)O2
x	u	x	COc1ccc(-c2ccc3c(c2)[C@@H]2[C@@H](CCN2S(=O)(=O)c2ccc(OC)cc2)[C@H](CO)N3)cc1
x	u	x	C/C=C/c1ccc([C@H]2[C@@H](CO)N(CC3CCCC3)C23CN(C(=O)CC2CC2)C3)cc1
6	10	3.4	CCCNC(=O)C[C@@H]1CC[C@H]2[C@@H](COC[C@@H](O)CN2C(=O)Nc2c(C)noc2C)O1
-1	1	2.1	OC[C@@H]1Nc2ccc(-c3cccc(F)c3)cc2[C@@H]2[C@H]1CCN2Cc1ccncc1
1	-1	-1.8	COc1cccc(S(=O)(=O)N2CC[C@@H]3[C@H](CO)N(C)c4ccc(C5=CCCCC5)cc4[C@@H]32)c1
x	u	x	Cc1ccccc1S(=O)(=O)N1CCCCN2[C@H](CO)[C@H](c3ccc(C#CCN(C)C)cc3)[C@@H]2C1
-8	1	9.2	COc1ccc2c3c([nH]c2c1)[C@@H](CO)N(Cc1ccccn1)CC31CCN(C(=O)c2ccccn2)CC1
-1	1	2.2	COc1cccc(S(=O)(=O)N2C[C@@H](O)COC[C@H]3O[C@@H](CC(=O)N4CCCCC4)CC[C@@H]32)c1
-2	-5	-2.7	N#C[C@@H]1N[C@H](CO)[C@@H]1c1ccc(/C=C/c2ccccc2)cc1
-4	-3	1.8	O=C(c1ccccc1F)N1C[C@@H]2[C@H](c3ccccc31)[C@H](CO)N2Cc1ccc2c(c1)OCO2
-2	-1	0.2	COc1ccccc1CN1C[C@@H](C)[C@H](OC)CN(C)C(=O)c2ccc(NC(C)=O)cc2OC[C@@H]1C
x	u	x	COc1cccc(NC(=O)N[C@@H]2C=C[C@H](CC(=O)Nc3ccc(-c4ccccc4)cc3)O[C@@H]2CO)c1
0	3	3.8	CN(C)CC(=O)Nc1ccc2c(c1)[C@@H]1C[C@@H](CC(=O)NCc3cccc(F)c3)O[C@H](CO)[C@@H]1O2
x	u	x	COc1ccccc1CNC(=O)C[C@@H]1CC[C@@H]2[C@H](COC[C@@H](O)CN2C(=O)Nc2ccc(C(F)(F)F)cc2)O1
-3	-4	-0.8	CCN(C[C@@H]1[C@@H](c2ccccc2)[C@@H](CO)N1C(C)=O)C(=O)NC(C)C
-16	-8	7.9	N#C[C@H]1[C@@H](c2ccccc2C2=CCCC2)[C@H](CO)N1C(=O)NC1CCCCC1
4	7	3.2	CN(C)C(=O)C[C@H]1C[C@@H]2c3cc(NC(=O)CC4CC4)ccc3O[C@@H]2[C@H](CO)O1
11	14	3.1	O=C(Nc1cc(F)ccc1F)N1CCCCN2[C@H](C1)[C@H](c1ccc(-c3cccnc3)cc1)[C@@H]2CO
4	4	-0.9	O=C(N[C@@H]1CC[C@@H](CC(=O)N2CCCCC2)O[C@@H]1CO)c1ccccn1
-38*	-52*!	-14*	N#Cc1cccc(-c2ccc(C3[C@@H]4CN(C(=O)C5CCCCC5)C[C@H]3N4)cc2)c1 (some centres not stated)
0	-1	-1.5	C[C@@H]1CCCCO[C@H](CN(C)C(=O)c2ccncc2)[C@H](C)CN([C@@H](C)CO)C(=O)c2cc(NC(=O)CCC(F)(F)F)ccc2O1
-14	-4	10	CCN1[C@H](C(=O)NCCc2cn(C)cn2)[C@@H](CO)[C@@H]2Cn3c(ccc(-c4ccccc4)c3=O)[C@@H]21
4	8	3.9	O=C(NC1CCCCC1)[C@@H]1[C@@H](CO)[C@@H]2Cn3c(cccc3=O)[C@H]1N2Cc1cccnc1
1	1	-0.2	COc1ccc(S(=O)(=O)Nc2ccc3c(c2)CC(=O)N([C@H](C)CO)C[C@H](C)[C@@H](CN(C)CC2CC2)O3)cc1
2	5	2.6	C[C@@H]1CN([C@H](C)CO)C(=O)c2cccc(NS(=O)(=O)c3cn(C)cn3)c2O[C@H]1CN(C)Cc1ccc(Oc2ccccc2)cc1
-3	3	6.5	C[C@@H]1CCCCO[C@@H](CN(C)S(=O)(=O)c2cn(C)cn2)[C@H](C)CN([C@@H](C)CO)C(=O)c2cc(N(C)C)ccc2O1
1	-1	-1.6	COC(=O)C[C@@H]1C[C@@H]2c3cc(NC(=O)Nc4ccc(C(F)(F)F)cc4)ccc3O[C@@H]2[C@H](CO)O1
6	9	2.5	COCC(=O)N1[C@@H](C#N)[C@@H](c2ccccc2-c2cccc(F)c2)[C@@H]1CO
4	4	0.3	CCCN1[C@H](C(=O)NC2CCC2)[C@@H](CO)[C@@H]2Cn3c(ccc(-c4cccnc4)c3=O)[C@@H]21
12	-4	-17	O=C(NC1CCCC1)N1CC(=O)N2[C@H](C1)[C@H](c1ccc(/C=C/c3ccccc3)cc1)[C@@H]2CO
x	u	x	O=C(Nc1cc(F)ccc1F)N1CC(=O)N2[C@@H](CO)[C@@H](c3ccc(C#CC4CCCCC4)cc3)[C@@H]2C1
-9	-7	2.3	CCC(=O)NC[C@@H]1[C@@H](c2ccc(-c3cccc(F)c3)cc2)[C@H](CO)N1C(=O)CC
-4	0	3.4	CO[C@@H](CN(C)S(=O)(=O)c1ccc(Cl)cc1)[C@@H](C)CN(C(=O)Nc1ccccc1F)[C@@H](C)CO
-9	-6	2.8	CCNC(=O)Nc1ccc2c(c1)C(=O)N(C)[C@@H]1CC[C@@H](CC(=O)NCc3ccccc3F)O[C@@H]1CO2
0	0	-0.8	CN(C)C(=O)c1ccc(-c2ccc([C@@H]3[C@H](C#N)N[C@H]3CO)cc2)cc1
x	u	x	COc1cccc(S(=O)(=O)Nc2ccc3c(c2)C(=O)N(C)C[C@@H](OC)[C@H](C)CN(Cc2ccccc2F)[C@@H](C)CO3)c1
0	-1	-0.4	COc1ccc(S(=O)(=O)Nc2ccc3c(c2)C(=O)N([C@@H](C)CO)C[C@@H](C)[C@@H](CN(C)S(=O)(=O)c2ccc(Cl)cc2)OCCCC[C@H](C)O3)cc1
x	u	x	O=S(=O)(c1cccc(F)c1)N1CC[C@@H]2[C@H](CO)Nc3ccc(-c4cccc(F)c4)cc3[C@@H]21

# Next section
DUX4 txn inh difference	DUX4 txn inh	DUX4 txn inh control	Structure
-5	-6	-1.2	C[C@H](CO)N1C[C@H](C)[C@H](CN(C)C(=O)Nc2ccc3c(c2)OCO3)Oc2c(NC(=O)c3nc4ccccc4s3)cccc2C1=O
13	14	1.1	O=C(C[C@H]1CC[C@@H]2[C@H](COC[C@@H](O)CN2C(=O)Nc2ccccc2)O1)NCCc1ccncc1
12	13	1.6	O=C(NCCCN1CCOCC1)[C@H]1[C@H](CO)[C@H]2Cn3c(cccc3=O)[C@@H]1N2C(=O)NC1CCCC1
1	0	-1.3	COc1ccccc1S(=O)(=O)N(C)C[C@@H]1OCc2cn(nn2)CCCC(=O)N([C@@H](C)CO)C[C@@H]1C
1	-1	-2.0	CC(=O)NC[C@@H]1[C@H](c2ccc(-c3ccccc3)cc2)[C@@H](CO)N1C(=O)C1CC1
0	-7	-7.5	O=C(C[C@H]1C[C@@H]2c3cc(NC(=O)C4CCC4)ccc3O[C@@H]2[C@@H](CO)O1)NC1CCCC1

# Bioassay records (PubChem BioAssay)
